# Screening data deposited in PubChem BioAssay by National Center for Advancing Translational Sciences (NCATS).
# D2 PAM: positive allosteric modulators of human D2 dopamine receptor | DiscoveRx D2 beta-arrestin cells, luminescence, 90 min; 100% = 57 uM dopamine signal | potentiation, % (no concentration beside the values) | actives 0.23% (n = 360,000); active = potentiation of 50% or more; inconclusive = 30% to 50%; inactive = 30% or less;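 note: compound concentration not given in the record; tested on top of an EC20 dose of dopamine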
# Target sequence (P14416 whole entry, looked up): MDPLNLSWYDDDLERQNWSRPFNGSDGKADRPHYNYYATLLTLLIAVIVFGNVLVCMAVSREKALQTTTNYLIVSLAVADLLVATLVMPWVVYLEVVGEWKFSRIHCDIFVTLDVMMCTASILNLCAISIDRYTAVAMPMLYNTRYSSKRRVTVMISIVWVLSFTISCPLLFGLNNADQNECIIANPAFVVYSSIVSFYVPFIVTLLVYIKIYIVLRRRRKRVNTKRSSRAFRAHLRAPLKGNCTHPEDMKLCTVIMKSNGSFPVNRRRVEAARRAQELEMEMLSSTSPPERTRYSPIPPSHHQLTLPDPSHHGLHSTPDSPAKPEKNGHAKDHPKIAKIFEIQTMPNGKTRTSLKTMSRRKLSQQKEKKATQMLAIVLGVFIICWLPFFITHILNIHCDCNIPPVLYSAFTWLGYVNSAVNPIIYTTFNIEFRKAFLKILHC
#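 D2 cells co-treated with compound plus 50 nM dopamine (EC20) for 90 min at 37 deg C to detect potentiation. Beta-arrestin recruitment was read as enzyme-fragment luminescence after 1 h at ambient temperature. Full response was set by 57 uM dopamine.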
# TRPML1 blocker: human mucolipin-1 channel inhibition | Q9GZU1 | TRPML1-inducible cells, Ca2+ dye fluorescence, FDSS; active compounds read low; inhibition of EC80 agonist-evoked calcium signal | activity change, negative = inhibition, % (no concentration beside the values) | actives 0.02% (n = 390,000); in the data active means activity change below about -50%; inconclusive means about -30% to -50%; inactive means above about -30%;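 note: stimulus is agonist 54-4 at its EC80 concentration; % is set by controls: 0 for no effect and ±100 for the full control effect; compound concentration not given in the record; the text of the record puts the active cut at -80%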
# Target sequence (Q9GZU1 whole entry, looked up): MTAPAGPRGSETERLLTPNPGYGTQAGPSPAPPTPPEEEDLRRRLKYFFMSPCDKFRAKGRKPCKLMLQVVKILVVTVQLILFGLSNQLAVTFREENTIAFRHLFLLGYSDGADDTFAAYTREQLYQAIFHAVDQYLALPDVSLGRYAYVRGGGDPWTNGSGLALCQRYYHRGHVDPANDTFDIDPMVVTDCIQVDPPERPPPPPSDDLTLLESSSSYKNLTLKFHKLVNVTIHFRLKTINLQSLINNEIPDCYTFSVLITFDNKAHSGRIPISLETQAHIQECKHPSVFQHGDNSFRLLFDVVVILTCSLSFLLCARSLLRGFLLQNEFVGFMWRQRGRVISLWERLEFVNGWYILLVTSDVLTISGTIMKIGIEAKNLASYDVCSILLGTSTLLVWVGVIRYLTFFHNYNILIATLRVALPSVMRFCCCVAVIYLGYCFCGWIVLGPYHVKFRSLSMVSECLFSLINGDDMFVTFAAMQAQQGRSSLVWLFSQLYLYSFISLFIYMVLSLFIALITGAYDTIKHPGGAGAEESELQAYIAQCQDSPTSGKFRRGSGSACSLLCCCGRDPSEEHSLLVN
#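 TRPML1-DL cells, Tet-induced overnight (~16 h, 37 °C) at 1,500 cells/well, were loaded with Ca8 no-wash dye plus quencher for 45-90 min at room temperature. Compounds were pinned during FDSS kinetic reading; agonist 54-4 at EC80 (4 uM final) then added.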
# Six1-Eya2 blk: blocks human Six1 binding to Eya2. actives 0.56% (n = 360,000). AID 651725. AlphaScreen GST-Six1/His-Eya2 binding, biochemical; active compounds read low; control for the full effect not named in the record. activity change, % (test concentration not listed); in the data active = activity change below about -65%; inconclusive = about -30% to -65%; inactive = above about -30%; note: % is set by controls: 0 for no effect and ±100 for the full control effect
#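 GST-Six1 + His-Eya2 (5X stock: 250/500 nM); Tris pH 8.0, 300 mM NaCl, 0.05% BSA, 0.02% Tween 20; GSH donor/Ni acceptor beads; 1 h 37 °C dark; AlphaScreen readout.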
# CtBP-E1A inh: CtBP/E1A binding inhibition | AID 651724 | actives 0.49% (n = 340,000) | AlphaScreen GST-E1A/His-CtBP binding, 1536-well; active compounds read low; control for the full effect not named in the record | activity change, % (concentration not given with the values); in the data active means activity change below about -65%; inconclusive means about -30% to -65%; inactive means above about -30%; note: % is set by controls: 0 for no effect and ±100 for the full control effect
#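 In 5 uL wells, 23 nL compound meets equimolar GST-E1A and His-CtBP (5X stock 125 nM each) for 2 h, 37 °C. Beads (5X, 50 ug/mL) then 1 h, 37 °C, dark.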
# TRPV1 PAM: enhances activation of the human vanilloid receptor TRPV1; Q8NER1; TRPV1-expressing cells, Fluo-8 calcium influx, capsaicin EC20 potentiation; host cell line not named in the record; control for the full effect not named in the record; potentiation, % at 8.33 µM; actives 0.02% (n = 320,000); active means potentiation above 80%; inconclusive means 30% to 80%; inactive means below 30%; note: 0% is about no effect
#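 Cells expressing TRPV1 were dye-loaded with Fluo-8 and read kinetically: 10 s baseline, 3 min after compound (agonist portion), then 2 min after EC20 capsaicin (allosteric enhancer portion). Calcium-bound dye fluorescence at 480/520 nm.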
# TRPML1 agonist: activates the human TRPML1 channel; actives 0.12% (n = 410,000); Q9GZU1; TRPML1-expressing cells, Ca2+ dye fluorescence, FDSS; host cell line not named in the record; reference of the full effect not given here; activation, % (concentration not given with the values); AID 624414; in the data active = activation above about 50%; inconclusive = about 30% to 50%; inactive = below about 30%; note: 0% is about no effect; the text of the record puts the active cut at 80%
#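 In this qHTS format, compounds were pin-transferred onto Ca8-dye-loaded TRPML1-DL cells induced with Tet overnight, and intracellular Ca2+ fluorescence was recorded kinetically for 110 s after a 10 s baseline. A subsequent 4uM final 54-4 (EC80) addition followed by a second 110 s read served as the antagonist phase.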
# The depositor's hits bear a star; ? = inconclusive; / = no result given; & = joins results of further samples.
cpd	molecule	D2 PAM	TRPML1 blocker	Six1-Eya2 blk
1	Cc1cc(C(=O)Nc2ccc(Cl)c(S(=O)(=O)N3CCOCC3)c2)c2ccccc2n1	7	-2	-5
2	O=C1CCC(C(=O)OC(C(=O)Nc2cc(Cl)cc(Cl)c2)c2ccccc2)=NN1 (stereo not given)	5	0	0
3	Cc1cc(NS(=O)(=O)c2ccc(NC(=O)c3ccc(F)cc3)cc2)nc(C)n1	-5	48	-10
4	Cc1ccccc1C(=O)NC1CCN(CC(=O)N2CCCCC2C)CC1 (stereo not given)	-14	-6	5
5	O=P(O)(O)C(O)C(F)(F)C(F)(F)C(F)(F)C(F)F (stereo not given)	-54	-2	-2
6	CCS(=O)(=O)N1Cc2ccccc2CC1C(=O)Nc1ccc(OC)c(OC)c1 (stereo not given)	0	-23	4
7	O=C(Nc1ccc(N2CCOCC2)c(Cl)c1)c1ncn[nH]1	0	-8	-19
8	Cc1cc(=O)oc2cc(OCC(=O)OCC(=O)NCc3ccc4c(c3)OCO4)ccc12	0	10	1
9	Cn1nnnc1SCC(=O)NC(=O)c1cccc([N+](=O)[O-])c1	-13	12	2
10	COCCN(C(=O)CCC(=O)Nc1cc(C)on1)C(C(=O)NC1CCCC1)c1ccc(C(C)C)cc1 (stereo not given)	-7	3	-1

cpd	CtBP-E1A inh	TRPV1 PAM	TRPML1 agonist
1	/	2	-0.1
2	/	-5	-1.3
3	/	/	-0.4
4	1	-1	-0.4
5	-2	-3	2.7
6	-6	-2	0.3
7	-16	12	-0.2
8	15	1	-0.9
9	4	6	0.7
10	6	-5	1.5

cpd	molecule	D2 PAM	TRPML1 blocker	Six1-Eya2 blk
11	O=C(COC(=O)Cc1ccsc1)NCc1ccccc1	20	-10	4
12	COCCNC(=S)Nc1cc(OC)c(OC)cc1C#N	-25	27	?
13	COc1ccc(NC(=O)CCCCCn2nnc3ccccc3c2=O)cc1OC	-6	6	-8
14	Cc1nnc(SCc2ccccc2)n1N	-16	4	11
15	Cc1cc2c(Nc3ccccc3O)ncnc2s1	-2	9	22
16	COc1ccc(S(=O)(=O)Cc2ccc(C(=O)NCc3ccc(C)cc3)o2)cc1	-10	-7	7
17	CN(C)/C=N/c1cc(=O)n(C)c(=O)n1Cc1ccccc1	-5	6	-6
18	C[C@@H]1Cc2[nH][nH]c(=O)c2[C@H](c2ccc(Cl)cc2)O1	/	/	10
19	CCOC(=O)C1CCCN(Cc2cc(Br)ccc2OC)C1 (stereo not given)	-31	-24	8
20	O=S(=O)(N1CCCCC1)N1CCN(c2ccc(F)cc2)CC1	-6	21	4

cpd	CtBP-E1A inh	TRPV1 PAM	TRPML1 agonist
11	1	-17	0.3
12	/	-10	0.7
13	/	3	-0.6
14	18	-11	0.0
15	-3	/	-1.1
16	7	8	-0.5
17	1	-2	-0.2
18	6	/	-0.6
19	8	-1	0.2
20	-1	-18	0.5

cpd	molecule	D2 PAM	TRPML1 blocker	Six1-Eya2 blk
21	Cc1c(C(=O)N2CCN(c3ccc([N+](=O)[O-])cc3)CC2)oc2ccccc12	-1	14	-15
22	O=C(CN1CCN(C(=O)c2cccc(F)c2)CC1)NC1CCCCC1	-38	-18	0
23	O=C(Nc1nnc([C@@H]2C[C@H](O)[C@@H](CO)O2)s1)NC1CCCCC1	0	/	2
24	CCCOc1ccc(-c2cn3ccccc3n2)cc1	-4	-11	-3
25	CC1=C(C(=O)N(C)C)CC(CC(=O)NCc2ccco2)C(=O)N1Cc1ccccc1 (stereo not given)	-3	-12	7
26	Cc1cc(Sc2nnc(N)s2)c2ccccc2n1	-7	-2	1
27	COc1cc(/C=C2\SC(c3ccc(C)cc3)=NC2=O)ccc1O	-17	8	-23
28	Cc1nc2ccccc2n1C(=O)c1ccc(Cl)cc1[N+](=O)[O-]	2	-18	-3
29	CCn1c(Cc2ccccc2)nnc1SCC(=O)Nc1ccccc1N1CCOCC1	-2	6	25
30	COc1ccc(C(=O)NC(CCSC)C(=O)NCc2nnc3ccccn23)cc1 (stereo not given)	-27	33	-2

cpd	CtBP-E1A inh	TRPV1 PAM	TRPML1 agonist
21	-9	-13	3.5
22	4	-15	-0.6
23	7	/	0.0
24	-22	7	1.6
25	-5	/	1.0
26	3	24	0.9
27	?	24	0.7
28	1	-2	0.5
29	0	-14	2.2
30	-1	-3	1.1

cpd	molecule	D2 PAM	TRPML1 blocker	Six1-Eya2 blk
31	COC(=O)Nc1nc2ccc(C(=O)c3cccs3)cc2[nH]1	-5	11	-3
32	O=C(COC(=O)c1cccc2ccccc12)NCC1CCCO1 (stereo not given)	7	1	1
33	O=C(O)Cc1ccc2c(c1)Cc1cccnc1O2	-4	5	3
34	Cc1ccc(OCC(O)CN2CCN(c3ccc(C)cc3)CC2)cc1 (stereo not given)	-2	-26	-12
35	Cc1cc2ncc(S(=O)(=O)C(C)(C)C)c(N)n2n1	-9	-9	0
36	COC(=O)[C@@H](NC(=O)N1CCC(C)CC1)C(C)C	-1	-9	1
37	COc1ccc(Cc2nnc(NC(=O)Nc3ccccc3F)s2)cc1	1	7	0
38	Cn1cc(CNCc2ccc(-n3cccn3)cc2)c(-c2ccccc2F)n1	-10	3	3
39	CN(C)C(=O)Oc1cccc([N+](C)(C)C)c1	-8&-1	-1&-5	1&3
40	C[N+]1(C2CCC3CCCC2C3O)CCCC1 (stereo not given)	-4	-3	39

cpd	CtBP-E1A inh	TRPV1 PAM	TRPML1 agonist
31	2	/	-0.3
32	-10	-7	-0.1
33	1	/	-0.3
34	-3	-4	0.8
35	-3	-10	-0.3
36	6	-3	0.1
37	0	1	0.7
38	17	5	3.0
39	-1&7	-21&-1	-0.3&1.1
40	7	-1	0.6

cpd	molecule	D2 PAM	TRPML1 blocker	Six1-Eya2 blk
41	CC(=O)N(/N=C/c1ccc([N+](=O)[O-])o1)c1nc2ccccc2c(=O)n1-c1ccccc1	-31	16	3
42	COc1ccc(CN(C(=O)CN2C(=O)c3ccccc3S2(=O)=O)C(C(=O)NCC2CCCO2)c2ccncc2)cc1 (stereo not given)	-9	23	8
43	COC(=O)c1ccc(-c2cc(C(=O)O)c3cc4c(cc3n2)OCCO4)cc1	-7	-7	3
44	CN1OC[C@@H]2CN[C@H](c3cccc(-c4ccccc4)c3)C[C@@H]21	-17	-2	1
45	COc1cc(NC(=S)N2CCN(C)CC2)c(OC)cc1Cl	-2	-14	-4
46	Cc1ccc(C(=O)Nc2ccc(NC(=O)c3cccs3)cc2)c(C)c1	-1	-14	3
47	CC(=O)Nn1cc2c(c1-c1ccccc1)c(=O)n(C)c(=O)n2C	-3	-13	4
48	C#CC(=O)N(c1ccc(OC)c(OC)c1)C(C(=O)NC1CCCC1)c1cccs1 (stereo not given)	-24	-4	-2
49	CCOC(=O)C1CCCN(C/C(O)=C(\C#N)c2nc(-c3ccc(Cl)cc3)cs2)C1 (stereo not given)	-1	4	-8
50	CCCNC(=O)C(Cc1ccc(Cl)cc1)NC(=O)c1ccc(C#N)cc1 (stereo not given)	-1	6	6

cpd	CtBP-E1A inh	TRPV1 PAM	TRPML1 agonist
41	/	-1	-0.7
42	-6	-3	1.6
43	11	-2	-0.7
44	-10	/	1.7
45	6	19	-0.1
46	6	2	-0.1
47	6	-1	0.1
48	-6	7	0.0
49	-8	-4	4.3
50	3	-7	-0.5

cpd	molecule	D2 PAM	TRPML1 blocker	Six1-Eya2 blk
51	Cn1c(=O)c(NC(=O)c2ccccc2)c2n(c1=S)CCCCC2	-8	-8	4
52	Cc1sc(-c2ccccn2)nc1OC(=O)c1ccc(Cl)c(Cl)c1	7	3	-3
53	O=C(Cc1ccccc1)N/N=C/C=C/c1cccc([N+](=O)[O-])c1	0	50	0
54	COCCCN(C(=O)C1CCCCC1)c1c(N)n(Cc2ccccc2)c(=O)[nH]c1=O	-22	6	0
55	CS(=O)(=O)Nc1cccc(NC(=O)C2Cc3c(-c4cccc(F)c4)ccnc3O2)c1 (stereo not given)	-10	/	4
56	COCCNc1nc(Oc2ccc(Cl)c(Cl)c2)c2sccc2n1	9	/	16
57	COc1cc(=O)n(C)c2c(OCC3OC(C)(C)OC3(C)C)cccc12 (stereo not given)	-21	/	0
58	COc1ccc(S(=O)(=O)NCCNC(=O)N2CCOCC2)cc1	2	-11	-15
59	CC(C)CN1C(=O)NC2(CCCc3ccccc32)C1=O (stereo not given)	-7	-1	3
60	O=C(NCC(=O)N1CC(O)CC1C(=O)N1CCCC1C(=O)OCc1ccccc1)OCc1ccccc1 (stereo not given)	-3	41	5

cpd	CtBP-E1A inh	TRPV1 PAM	TRPML1 agonist
51	-1	-2	3.7
52	-6	-1	-0.7
53	-3	3	1.2
54	-2	/	2.2
55	12	/	1.3
56	15	/	-0.7
57	-26	27	/
58	-1	-4	0.0
59	3	1	-0.7
60	-3	-3	0.4

cpd	molecule	D2 PAM	TRPML1 blocker	Six1-Eya2 blk
61	Cc1c(S(=O)(=O)Nc2ccc3c(c2)OCCO3)c(=O)n(C)c(=O)n1C	-6	7	-1
62	Cc1ccccc1C(=O)NC(=S)NCc1ccccc1	-5	-10	3
63	COc1ccc2nc(NC(=O)C3CCCN(S(=O)(=O)c4c(C)noc4C)C3)sc2c1 (stereo not given)	-1	-8	-15
64	CC(=O)Nc1ccc(S(=O)(=O)NCC(=O)OCC(=O)NCc2ccco2)cc1	-18	-5	9
65	CCCCCc1c(C)nc(N2CCc3ccccc3C2)[nH]c1=O	-16	-1	-3
66	O=C(NCC(c1ccc(F)cc1)N1CCOCC1)c1cccnc1Sc1ccc(Cl)cc1 (stereo not given)	-5	0	-6
67	Cc1ccc(C)c(-c2nnc(NC(=O)c3ccco3)o2)c1	-9	6	-18
68	O=C(NC1CCCc2ccccc21)N[C@@H](Cc1ccccc1)C(=O)O (stereo not given in full)	4	-7	8

cpd	CtBP-E1A inh	TRPV1 PAM	TRPML1 agonist
61	1	/	-0.5
62	4	-19	2.7
63	-6	13	0.2
64	7	2	-0.3
65	-3	-3	-0.1
66	7	3	0.5
67	-5	9	-0.5
68	2	-20	-0.2

# Looked up by structure from the list above (seven):
cpd	molecule	D2 PAM	TRPML1 blocker	Six1-Eya2 blk
63	COc1ccc2nc(NC(=O)C3CCCN(S(=O)(=O)c4c(C)noc4C)C3)sc2c1 (stereo not given)	-1	-8	-15
65	CCCCCc1c(C)nc(N2CCc3ccccc3C2)[nH]c1=O	-16	-1	-3
68	O=C(NC1CCCc2ccccc21)N[C@@H](Cc1ccccc1)C(=O)O (stereo not given in full)	4	-7	8
66	O=C(NCC(c1ccc(F)cc1)N1CCOCC1)c1cccnc1Sc1ccc(Cl)cc1 (stereo not given)	-5	0	-6
64	CC(=O)Nc1ccc(S(=O)(=O)NCC(=O)OCC(=O)NCc2ccco2)cc1	-18	-5	9
67	Cc1ccc(C)c(-c2nnc(NC(=O)c3ccco3)o2)c1	-9	6	-18
62	Cc1ccccc1C(=O)NC(=S)NCc1ccccc1	-5	-10	3

cpd	CtBP-E1A inh	TRPV1 PAM	TRPML1 agonist
63	-6	13	0.2
65	-3	-3	-0.1
68	2	-20	-0.2
66	7	3	0.5
64	7	2	-0.3
67	-5	9	-0.5
62	4	-19	2.7
